HPGD block: HPGD (human) dehydrogenase inhibition; P15428; purified HPGD, NADH fluorescence kinetic, PGE2 substrate; Potency, µM, without a hit: top-dose activity change, negative = inhibition, most hits filed as inhibitors; 150,000 compounds, 4.3% hits; AID 894; active = well fitted inhibition curve with a large enough effect (not every such curve was filed as active); inconclusive = small, poorly fitted or top-dose-only effect, or another doubt; inactive = no such curve, though single readings can be large or run the other way;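 further: top concentration of the series not given in the record; plate controls included wells without enzyme; inactives centre near -10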
Target sequence (P15428 whole entry, looked up): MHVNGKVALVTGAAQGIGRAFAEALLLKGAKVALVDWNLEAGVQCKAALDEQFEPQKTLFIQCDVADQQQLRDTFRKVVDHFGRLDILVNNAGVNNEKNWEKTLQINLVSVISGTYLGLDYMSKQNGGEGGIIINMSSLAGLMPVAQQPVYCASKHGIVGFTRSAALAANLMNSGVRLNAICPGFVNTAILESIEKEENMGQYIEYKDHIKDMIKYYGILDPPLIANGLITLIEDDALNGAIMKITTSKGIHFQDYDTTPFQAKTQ
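20 nM HPGD preincubated 15 min at room temperature with compound in 50 mM Tris-HCl pH 8, 0.01% Tween 20. Started with 1 mM NAD+ and 30 uM prostaglandin E2; NADH fluorescence (360/450 nm) read 5 times over 30-s intervals, last minus first.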
The depositor's hits bear a star; ? = inconclusive; & = joins results of further samples. On the % scale 0 is the no-effect control and ±100 the full control effect; potency means the concentration at half of the fitted maximal effect. The list is partial (hit frequency here may not be typical).

CC(=O)Nc1ccc(S(=O)(=O)Nc2nc3ccccc3nc2N2CCc3ccccc3C2)cc1
  HPGD block = -24%

Cc1noc(C)c1C(=O)N1CCC2(CCN(Cc3nccs3)CC2)CC1
  HPGD block = -2%

CCOC(=O)N1CCN(C(=O)c2nn(-c3ccc(C)cc3)c(=O)c3c2c2ccccc2n3C)CC1
  HPGD block = ?

CCCS(=O)(=O)N1CCCC(C(=O)NCCN2CCCCC2C)C1 (stereo unspecified)
  HPGD block = -5%

CC(NC(=O)Cc1ccc(F)cc1)c1ccc(F)cc1 (stereo unspecified)
  HPGD block = -16%

COc1ccc(OCCSc2n[nH]c(N)n2)cc1
  HPGD block = -16%

NS(=O)(=O)c1cccnc1Nc1cccc(C(F)(F)F)c1
  HPGD block = -6%

CCOC(=O)CC(=O)CSC1=C(C#N)C(c2ccccc2OC)CC(=O)N1 (stereo unspecified)
  HPGD block = -28%

CC(C)Oc1ccc(C(=O)NCc2cccnc2)cc1
  HPGD block = ?

O=C(NC(=S)N1CCCCC1)C12CC3CC(CC(C3)C1)C2
  HPGD block = -11%

2 entries drawn at random from the list so far:
Cc1noc(C)c1C(=O)N1CCC2(CCN(Cc3nccs3)CC2)CC1
  HPGD block = -2%

COc1ccc(OCCSc2n[nH]c(N)n2)cc1
  HPGD block = -16%

Molecules above containing an aryl methoxy group, in the order listed:
COc1ccc(OCCSc2n[nH]c(N)n2)cc1
  HPGD block = -16%

CCOC(=O)CC(=O)CSC1=C(C#N)C(c2ccccc2OC)CC(=O)N1 (stereo unspecified)
  HPGD block = -28%

Additional records follow:
CCN(C(=O)COC(=O)c1cccnc1Nc1cccc(C(F)(F)F)c1)C1CCS(=O)(=O)C1 (stereo unspecified)
  HPGD block = ?

FC(F)(F)c1cnc(Oc2cccc3ccccc23)c(Cl)c1
  HPGD block = ?

COc1cc(C=O)c([N+](=O)[O-])cc1OC
  HPGD block = -20%

COC(=O)C1=C(C)N(Cc2ccco2)C(=O)N[C@@H]1c1ccco1
  HPGD block = -8%

COC(=O)c1c(C)oc2ccc(N(C(=O)c3ccncc3)S(=O)(=O)c3ccc(C)cc3)cc12
  HPGD block = -12%

CCOC(=O)c1sc(NC(=O)c2cc(-c3ccccc3)nc3ccccc23)c(C#N)c1C
  HPGD block = 16µM*

Cc1ccc(Cn2ccc(NC(=O)c3noc4c3CCCCC4)n2)cc1
  HPGD block = -8%

COc1ccc(C(=O)Nc2ccc(N3CCN(C(=O)C(C)C)CC3)cc2)cc1[N+](=O)[O-]
  HPGD block = -14%

C=CCc1ccccc1OCC(O)CN1CCN(CCN2C(=O)c3cccc4cccc(c34)C2=O)CC1 (stereo unspecified)
  HPGD block = -26%

CCC(=O)Nc1nc(C)cc(SCC(=O)OC)n1
  HPGD block = 0%

CCCCC(=O)Nc1ccc(C(=O)NCc2ccncc2)cc1
  HPGD block = -12%

C(=N\n1cnnc1)/c1ccc2ncccc2c1
  HPGD block = -10%

CCCOc1ccc(-c2nc(C#N)c(NCCCn3ccnc3)o2)cc1
  HPGD block = ?

COC(=O)N1C2=C(c3ccccc3[C@@H]1CC(=O)Nc1ccc3cc4ccccc4cc3c1)[C@@H]1C(=O)N(c3ccccc3)C(=O)[C@@H]1[C@H](C)C2
  HPGD block = -13%

CCCCNC(=O)c1onc(CSc2cccc(Cl)c2)c1C(=O)O
  HPGD block = -26%

O=S(Cc1ccccc1)CC(O)(c1ccccc1)c1ccccc1 (stereo unspecified)
  HPGD block = -10%

O=C(Nc1ccc2c(c1)OCO2)c1c(Cl)nc2sccn12
  HPGD block = -9%

CCOc1cc(/C=N\Nc2nc(Nc3ccccc3)nc(N3CCOCC3)n2)ccc1OC(=O)c1ccco1
  HPGD block = -10%

Cc1ccc(Cl)cc1NC1=C/C(=N\S(=O)(=O)c2cccs2)c2ccccc2C1=O
  HPGD block = -16%

COc1ccccc1C(=O)Nc1ccc(C(=O)O)cc1
  HPGD block = -2%

C=CCn1c(C(c2ccccc2)c2ccccc2)n[nH]c1=S
  HPGD block = 25µM*

COc1ccc(CCNC(=O)CCn2c(=O)oc3ccccc32)cc1OC
  HPGD block = -2%

Cc1cccc(C)c1NC(=O)CS(=O)CC(=O)NC1CCCc2ccccc21 (stereo unspecified)
  HPGD block = -1%

COCC(=O)N1CCC2(CCCN(C(=O)Nc3cccc(C#N)c3)C2)CC1
  HPGD block = -5%

O=C(Nc1ccc2c(c1)OCO2)c1ccc(N2CCCC2)c([N+](=O)[O-])c1
  HPGD block = -21%

N#C/C(=C\C1=C(N2CCOCC2)C(=C\c2ccccc2)/CC1)C(=O)Nc1ccccc1F
  HPGD block = -11%

O=C(Nc1nc2cc3c(cc2s1)OCO3)C1=COCCO1
  HPGD block = -9%

Cn1c(C(=O)N2CCCC(C(=O)NCCCc3ccccc3)C2)cc2sccc21 (stereo unspecified)
  HPGD block = -12%

O=C(CO/N=C/c1ccc2c(c1)OCO2)Nc1cccc(Br)c1
  HPGD block = ?

CC(C)(Oc1ccc(Cl)cc1)C(=O)Nc1ncccn1
  HPGD block = -13%

c1ccc(CCCNc2nnnc3ccccc23)cc1
  HPGD block = -5%

O=C(Nc1ccc(N2CCOCC2)nc1)c1ccc(F)cc1
  HPGD block = -9%

CCC(=O)Nc1nc2cc(OC)ccc2s1
  HPGD block = 0%

CC(=O)NC(CCS(C)(=O)=O)C(=O)Nc1cccc(C)c1C (stereo unspecified)
  HPGD block = 1%

O=C(CSc1nc2[nH]ncc2c(=O)n1-c1ccccc1)N1CCCc2ccccc21
  HPGD block = -4%

O=C(NNC(=S)Nc1ccc(OC(F)F)cc1)c1cc2c(s1)CCCC2
  HPGD block = -19%

CCCC1=C(C(=O)OCC)C(c2ccncc2)n2ncnc2N1 (stereo unspecified)
  HPGD block = 0%

C(#Cc1ccccc1)C[N+]1(CC#Cc2cccc3ccccc23)CCCC1
  HPGD block = -8%

CC(NC(=O)Cn1cc2c(n1)CCCCC2)c1ccccc1 (stereo unspecified)
  HPGD block = -7%

Cc1ccc(/C=C/C(=O)Nc2cc(C)on2)cc1
  HPGD block = -23%

CCOc1ccccc1C(=O)NCCCCCC(=O)O
  HPGD block = -11%

O=C(N/N=C/c1cc(Br)ccc1O)C(c1ccncc1)N1CCOCC1 (stereo unspecified)
  HPGD block = ?

COc1ccc(-c2cc(C(=O)NC3CCCC3)no2)cc1OC
  HPGD block = -17%

O=C(O)c1c(-c2ccccc2)c2oc3ccccc3c2[nH]c1=O
  HPGD block = -26%

CCCCCOc1ccc(NC(=O)C(=O)NCCCn2ccnc2)cc1
  HPGD block = -13%

COc1cc2c(C(=O)N3CCN(c4cccc(Cl)c4)CC3)cn(CC(C)C)c(=O)c2cc1OC
  HPGD block = -8%

CCc1ccccc1NC(=O)CN1C(=O)C2CCCN2c2ncc(Cl)cc21 (stereo unspecified)
  HPGD block = -10%

Cc1ccc(S(=O)(=O)N2CCN(c3cc4c(cc3[N+](=O)[O-])n(C)c(=O)n4C)CC2)cc1
  HPGD block = -14%

CCOc1ccccc1OCCOc1ccc(F)cc1
  HPGD block = -12%

Cc1cnc(C(=O)Nc2cccc3cccnc23)cn1
  HPGD block = ?

O=C(NC1=NCCS1)NC12CC3CC(CC(C3)C1)C2
  HPGD block = -4%

CCOc1ccc(C(=O)NCC(C)CN(C)C)cc1OCC (stereo unspecified)
  HPGD block = -8%

CCOC(=O)c1sc2nc(-c3ccccc3)ccc2c1N
  HPGD block = ?

O=S(=O)(c1ccc(Sc2nnc3ccccn23)nc1)N1CCOCC1
  HPGD block = -6%

N#C/C(=C\c1c(N2CCCCCC2)nc2ccccn2c1=O)C(=O)NC1CCS(=O)(=O)C1 (stereo unspecified)
  HPGD block = -7%

Cc1ccc(C)c2[nH]c(=O)c(CCNS(=O)(=O)c3ccccc3)cc12
  HPGD block = ?

CCC(=O)N1CCCc2cc(S(=O)(=O)N3CCN(c4ncccn4)CC3)ccc21
  HPGD block = -9%

COC(=O)c1cc2sc(Cl)cc2n1Cc1nc(-c2cccc(C)c2)oc1C
  HPGD block = -15%

COC(=O)c1cc(OC)c(OC)cc1NC(=O)CSc1nnc(-c2cccnc2)n1C
  HPGD block = 4%

COc1ccc2c(c1)c(CC(=O)NCc1ccc3c(c1)OCO3)c(C)n2C(=O)c1ccc(Cl)cc1
  HPGD block = -27%

O=C(CCCC(=O)NCC1CCCO1)NCC1CCCO1 (stereo unspecified)
  HPGD block = -1%

Cc1ccc(Cl)c(OCCCCN(C)Cc2ccccc2)c1
  HPGD block = -8%

CN1C2CCC1CC(OC(c1ccccc1)c1ccccc1)C2 (stereo unspecified)
  HPGD block = -9%&-8%

O=[N+]([O-])c1ccc(-n2nnnc2-c2ccccc2)c([N+](=O)[O-])c1
  HPGD block = -5%

CC(C)=CCc1c2c(c(O)c3c(=O)c(O)c(-c4ccccc4)oc13)C=CC(C)(C)O2
  HPGD block = -18%

CCCCc1cc(=O)oc2cc(OCC(=O)N(CC)CC)ccc12
  HPGD block = ?

COc1cccc(-c2cncnc2-n2ccnc2)c1
  HPGD block = ?

COc1ccc(CNC(=O)c2sc3nc4c(c(C(F)(F)F)c3c2N)CCC4)cc1OC
  HPGD block = ?

COCCNC(=S)N/N=C/c1c(C)[nH]c2ccccc12
  HPGD block = -19%

COC(=O)NC(/C=C/c1ccccc1)C(C(C)=O)C(=O)OC (stereo unspecified)
  HPGD block = -9%

COc1ccc(N2CCN(C(=O)C3CCC(Cn4c(=S)[nH]c5ccccc5c4=O)CC3)CC2)cc1 (stereo unspecified)
  HPGD block = -14%

COc1ccc(CN(CC(=O)NC2CCCC2)C(=O)c2onc(C(N)=O)c2N)cc1
  HPGD block = -8%

O=C(O)c1ccc(N[C@H](c2ccccc2)c2ccc3cccnc3c2O)cc1
  HPGD block = ?

Cc1csc(NC(=O)CSc2nc3ccccc3s2)n1
  HPGD block = -12%

Cc1nc(NC2CCCCC2)c2nc(-c3ccccc3)n(CCCN3CCCCC3C)c2n1 (stereo unspecified)
  HPGD block = ?

CCOC(=O)C1C(=O)C=C(c2ccc([N+](=O)[O-])cc2)CC1c1ccccc1 (stereo unspecified)
  HPGD block = ?

CCC(=O)Nc1cccc(NC(=O)CSc2nnnn2Cc2ccccc2)c1
  HPGD block = -13%

CCNC(=O)CN(CCc1ccccc1)S(C)(=O)=O
  HPGD block = 5%

O=C(COc1ncnc2ccccc12)NCc1ccc2c(c1)OCO2
  HPGD block = ?

CCCCOC(=O)c1ccc(NC(=O)c2ccccc2OC)cc1
  HPGD block = -21%

Cc1oc2c(cc(NS(=O)(=O)c3cccs3)c3ccccc32)c1C(=O)OC(C)C
  HPGD block = -21%

CCc1nnc(NC(=O)CSc2nnc(-c3ccccc3O)n2-c2ccc(C)cc2C)s1
  HPGD block = -20%

COc1ccc(NC(=O)Cn2c(-c3ccccc3)cn(-c3ccc(C)cc3)c2=O)cc1
  HPGD block = -21%

CC(C)(C)c1ccc(NC(=O)NCc2ccco2)cc1
  HPGD block = -15%

O=C(COc1ccc(CO)cc1Cl)Nc1ccc(F)cc1
  HPGD block = -26%

O=C(c1ccco1)N1CCN=C1SCc1ccccc1Cl
  HPGD block = -9%

CCOC(=O)c1cc(CC)sc1NC(=O)c1ccc([N+](=O)[O-])c(N2CCOCC2)c1
  HPGD block = -15%

Cc1cc(C)c(NC(=O)/C=C\C(=O)O)c([N+](=O)[O-])c1
  HPGD block = 22µM*

COc1ccc(/C=N/NC(=O)c2nn(-c3ccc(C)c(C)c3)c(=O)c3ccccc23)cc1
  HPGD block = ?

Cc1nn(-c2ccccc2)c(C)c1/C=C/C(=O)OC(C)C(N)=O (stereo unspecified)
  HPGD block = -8%

Nc1cc(-c2cccc(Br)c2)nn1Cc1ccccc1
  HPGD block = -9%

CC1CCCCN1S(=O)(=O)c1ccc(N(C(=O)c2cnccn2)C(C(=O)NC2CCCCC2)c2cccs2)cc1 (stereo unspecified)
  HPGD block = -8%

CCCC(=O)c1cn(CC(=O)OC)c2ccccc12
  HPGD block = -13%

O=c1[nH]cc(CS(=O)(=O)Cc2c[nH]c(=O)[nH]c2=O)c(=O)[nH]1
  HPGD block = -7%

Cc1cccc2sc(NNC(=O)c3ccc4c(c3)OCCO4)nc12
  HPGD block = 32µM*

O=C(CCCCn1c(=O)[nH]c2ccccc2c1=O)NC1CCN(Cc2ccccc2)CC1
  HPGD block = -2%

NS(=O)(=O)c1ccc(NC(=O)C2CCCO2)cc1 (stereo unspecified)
  HPGD block = -5%

COc1cccc(CNC(=O)c2cnc(-c3ccccn3)nc2C(F)(F)F)c1
  HPGD block = -2%

COc1ccc2nc(SCC(=O)Nc3c(C)cccc3C)[nH]c2c1
  HPGD block = -17%

O=C(c1ccccc1)c1c(O)cc(-c2ccccc2)oc1=O
  HPGD block = -14%

CCn1cc(CN(C)C(=O)/C=C/c2ccc([N+](=O)[O-])cc2)c(C)n1
  HPGD block = -6%

CC1CCCCC1NC(=O)C1CCN(S(=O)(=O)c2ccc(-n3cnnn3)cc2)CC1 (stereo unspecified)
  HPGD block = -10%

O=C(CSc1nnc(-c2ccc(Cl)s2)o1)N1CCCc2ccccc21
  HPGD block = -19%

O=C(N/N=C/c1cc(Br)cs1)c1ccccc1[N+](=O)[O-]
  HPGD block = -10%

CCn1c(SCC(=O)N/N=C/c2ccc(O)c(OC)c2)nc2ccccc21
  HPGD block = -11%

COc1ccccc1C(=O)Nc1nnc(-c2ccc3c(c2)CCCC3)o1
  HPGD block = -28%

NC(Cc1ccc(Oc2ccc(O)cc2)cc1)C(=O)O (stereo unspecified)
  HPGD block = 2%

CCNc1nc(N)nc(Oc2ccc(OCCOc3ccccc3)nn2)n1
  HPGD block = 25µM*

CCCn1c(N2CCN(CC(=O)c3c(C)n(C)c4ccc(OC)cc34)CC2)nc2c1c(=O)[nH]c(=O)n2C
  HPGD block = -4%

O=C(c1cnccn1)N1CCC2(CCN(Cc3ccncc3)CC2)CC1
  HPGD block = -11%

N#C/C(=C/c1ccccc1[N+](=O)[O-])C(=O)NCc1ccco1
  HPGD block = ?

O=C(NNc1cccc(Cl)n1)c1ccc(Cl)cc1Cl
  HPGD block = -14%

Cc1ccc(S(=O)(=O)N2CCN(C(=O)c3ccccc3)CC2)cc1
  HPGD block = -12%

Assay outcomes (PubChem)
